Mtb H37Rv = Mycobacterium tuberculosis H37Rv growth inhibition, putative kinase inhibitor library, confirmatory dose response (AID 2842); inhibition, % at 10 µg/mL, or IC90 in µg/mL where a hit was titrated; M. tuberculosis H37Rv growth inhibition; higher % means a stronger effect; some inactives read as strong as hits; 24,000 compounds, 5.2% hits;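 active means confirmed in a dose series; about a fifth of its hits are not listed in these tables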;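 further: bacteria incubated one week before Alamar blue readout; 0% = bacteria only wells and 100% = bacteria with high antibiotic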
* = called active by the depositor. This is a subset (hit frequency here may not be typical).

SMILES	Mtb H37Rv
COC(=O)c1c(NC(=O)/C(C#N)=C/c2ccc(-c3ccc([N+](=O)[O-])cc3)o2)sc2c1CCCC2	3%
NC(=O)c1ccsc1NC(=O)c1ccccc1F	-4%
COC(=O)C1=C(C)Nc2[nH]c(=O)[nH]c(=O)c2C1c1ccc(Cl)cc1 (configuration not stated)	-4%
CCOC(=O)c1nn(-c2ccc(C)cc2)c(=O)c2c(NC(=O)c3ccccc3Br)scc12	6%
O=C(Nc1nccs1)c1cn(Cc2ccc(F)cc2)cc2c(=O)n(-c3ccccc3)nc1-2	2%
O=C1CCc2cc(S(=O)(=O)Nc3cccc(Cl)c3)cc3c2N1CCC3	1%
Cc1nnc(NC(=O)CSc2nc(N)c(NC(=O)c3ccco3)c(=O)[nH]2)s1	-12%
COc1ccc(C2CC(c3cccc(NS(C)(=O)=O)c3)=NN2S(C)(=O)=O)cc1 (configuration not stated)	2%
Cc1csc2ncc(C(=O)Nc3ccc(F)cc3F)c(=O)n12	-3%
O=[N+]([O-])c1cc(S(=O)(=O)NC2CCS(=O)(=O)C2)ccc1N1CCOCC1 (configuration not stated)	-10%
O=C(Nc1ccccc1)Nc1nc(C(=O)N2CCN(c3ccc(F)cc3)CC2)cs1	75%
Cc1ccc(N=Cc2c(O)cc(C)oc2=O)cc1	2%
COc1cccc(CNC(=O)C(=O)Nc2ccc3c(c2)N(C(C)=O)CCC3)c1	6%
CCOc1ccc(C(c2sc3nc(C)nn3c2O)N2CCCC2)cc1 (configuration not stated)	-1%
Cc1cc(C)c(-c2csc(NC(=O)c3ccc(S(=O)(=O)N(C)C)cc3)n2)c(C)c1	57%
O=C(Nc1nnc(C23CC4CC(CC(C4)C2)C3)s1)c1ccc(Cl)cc1	1%
O=C(Cc1cccs1)NCc1nnnn1-c1ccc(Cl)cc1	6%
COc1cc(/C=C2/SC(=Nc3ccccc3F)NC2=O)ccc1O	0%
CC1(C)c2sc(=O)[nH]c2SC2C(=O)N(CC(=O)O)C(=O)C21 (configuration not stated)	-23%
COc1cc(C2C(C(N)=O)=C(C)Nc3nnnn32)ccc1OCc1ccc(C(C)(C)C)cc1 (configuration not stated)	15%
COc1ccc(OC)c2sc(N3CCN(c4nc5c(OC)ccc(OC)c5s4)CC3)nc12	-3%
Cc1ccc(-c2csc(NC(=O)c3ccc(S(=O)(=O)N4CCCCC4)cc3)n2)cc1	3%
CCOC(=O)CSc1nc2c(c(=O)[nH]c(=O)n2C)n1C(C)C	-3%
Cc1ccc(-n2nnc3c(=O)n(Cc4cccc(Cl)c4)cnc32)cc1C	4%
CCOc1ccccc1NC(=O)c1oc2ccccc2c1NC(=O)c1ccco1	-5%
Continuation:
SMILES	Mtb H37Rv
CCN(C(=O)COc1ccc(Cl)cc1)C1CCS(=O)(=O)C1 (configuration not stated)	-1%
CC(=O)c1cc(C(=O)OCC(=O)Nc2ccc(Br)cc2)c2ccccn12	-15%
CCOC(=O)c1oc2ccccc2c1NC(=O)c1cc(OC)cc(OC)c1	-2%
COc1ccc2ncc(C(=O)O)c(NCCO)c2c1	-7%
Cc1ccc(N2CC(NC(=O)NCc3cccnc3)CC2=O)cc1C (configuration not stated)	-16%
Cn1cc(S(=O)(=O)CC(=O)Nc2ccc(Br)cc2)c2ccccc21	17%
NC(=O)c1c(NC(=O)c2ccc(S(=O)(=O)N3CCOCC3)cc2)sc2c1CCN(Cc1ccccc1)C2	0%
CC1=C(C(=O)OC(C)C)C(c2c(O)ccc3ccccc23)NC(=O)N1 (configuration not stated)	5%
Cc1ccc(-n2ncc3c(NNC(=O)c4cccc(Cl)c4)ncnc32)cc1C	84%
COc1ccc2nc(Nc3sc4c(c3-c3nc5ccccc5s3)CCC(C)C4)sc2c1 (configuration not stated)	5%
CCCCCNc1nc2c(c(=O)[nH]c(=O)n2C)n1CC(O)COc1ccc(C)c(C)c1 (configuration not stated)	-18%
O=C(CSc1ccc2nnc(-c3ccccc3)n2n1)Nc1ccc(F)cc1F	-10%
COc1ccc(OC)c(NS(=O)(=O)c2cc3c4c(c2)CCN4C(=O)CC3)c1	0%
Nc1nc(SCCN2CCOCC2)[nH]c(=O)c1NC(=O)c1ccco1	-3%
O=C(Nc1nnc(-c2ccc3c(c2)CCCC3)o1)c1ccc(Cl)s1	3.6µg/mL*
Cc1cccc(-c2nnc(NC(=O)c3cc(Br)ccc3Cl)s2)c1	55%
CC(=O)N1CCc2c(sc(NC(=O)c3ccc(C(=O)c4ccccc4)cc3)c2-c2nc3ccccc3s2)C1	2%
CSc1cccc2sc(Nc3ccccc3Cl)nc12	44%
CCOC(=O)c1nn(-c2ccc(OC)cc2)c(=O)c2c(NC(=O)c3ccc(F)c(F)c3)scc12	1%
COc1cccc(/C=C2/SC(=S)N(CC(=O)Nc3ccccc3C(=O)O)C2=O)c1	-11%
O=C(NCCCc1ccccc1)C(=O)NC1CCCC1	11%
COC(=O)c1ccc2nc(NC(=O)CCOc3ccccc3)sc2c1	-11%
O=C(O)CCc1nnc(N/N=C/c2ccc([N+](=O)[O-])cc2)[nH]c1=O	3%
CC1CCc2c(sc(NC(=O)c3cc4cc([N+](=O)[O-])ccc4s3)c2C(N)=O)C1 (configuration not stated)	-7%
O=C(CSc1nccn(-c2cccc(F)c2)c1=O)Nc1ccc(Cl)cc1	-4%
Additional structures follow.
SMILES	Mtb H37Rv
Nc1ncnc(Nc2ccc3c(c2)OCO3)c1[N+](=O)[O-]	9%
NC(=O)c1c(NC(=O)CN2C(=O)c3ccccc3C2=O)sc2c1CCCCC2	-9%
CN(C)S(=O)(=O)c1ccc(C(=O)NCc2nnc(SCC(=O)NC3CCCC3)o2)cc1	-7%
Cc1ccc(/C=C(/C#N)C(=O)Nc2sc3c(c2C(N)=O)CCCC3)o1	-8%
CCSC1=C(C#N)C(c2ccc(C)o2)C(C(=O)Nc2ccccc2OC)=C(C)N1 (configuration not stated)	-4%
COc1ccc(-n2c(=O)[nH]cc(C(=O)N3CCc4ccccc43)c2=O)cc1OC	-12%
O=C(CC1Sc2ccc(C(F)(F)F)cc2NC1=O)Nc1ccc(N2CCCCC2)cc1 (configuration not stated)	-4%
C/C=C/C(=O)Oc1cc(C)[nH]c(=O)c1[N+](=O)[O-]	-8%
COC(=O)c1ccc(NS(=O)(=O)/C=C/c2ccccc2)cc1	5%
COc1ccc(C(=O)Oc2cccc(Nc3ncnc4ccccc34)c2)cc1	15µg/mL*
CCOC(=O)N1CCc2c(sc(NC(C)=O)c2C(N)=O)C1	1%
Oc1ccc(CN2CCc3ccccc3C2)c2cccnc12	-3%
Cc1ccnc(SCc2cc(=O)c(OC(=O)c3ccc4c(c3)OCO4)co2)n1	-10%
O=C(CCn1c(=O)[nH]c2ccsc2c1=O)N1CCN(Cc2ccc3c(c2)OCO3)CC1	-8%
COc1cccc(OCC(=O)N2CCC3(CC2)CC(=O)c2ccccc2O3)c1	2%
CCCSc1nc2c([nH]c3ccccc32)c(=O)n1-c1ccc(C)cc1	5%
CCc1ccc(NC(=O)CSc2nc3c([nH]c4ccccc43)c(=O)n2-c2ccc(F)cc2)cc1	75%
COC(=O)c1ccc(Oc2ncnc(N)c2[N+](=O)[O-])cc1	74%
COc1ccc(NC(=O)CSc2ccc(-c3ccc(-n4ccnc4)cc3)nn2)cc1	-21%
COc1cccc2sc(Nc3nc4c(OC)cccc4s3)nc12	3%
CN1C(=O)c2cccc(NC(=O)c3coc4ccccc4c3=O)c2C1=O	-12%
Nc1nc(SCC(=O)N2CCCC2)[nH]c(=O)c1NC(=O)c1ccco1	-6%
O=C(COc1ccc2c3c(c(=O)oc2c1)CCCCC3)c1ccccc1	-3%
CCCSc1nc2c(c(=O)[nH]1)C(c1cccc(OC)c1)C1=C(CCCC1=O)N2 (configuration not stated)	-6%
COC(=O)c1cc(Nc2ncnc(N)c2[N+](=O)[O-])cc(C(=O)OC)c1	3%

Individual results from above.
For Mtb H37Rv, NC(=O)c1c(NC(=O)CN2C(=O)c3ccccc3C2=O)sc2c1CCCCC2 has -9%
For Mtb H37Rv, CN1C(=O)c2cccc(NC(=O)c3coc4ccccc4c3=O)c2C1=O has -12%

An excerpt from above in order of formula weight, ascending.
SMILES	Mtb H37Rv
C/C=C/C(=O)Oc1cc(C)[nH]c(=O)c1[N+](=O)[O-]	-8%
Nc1ncnc(Nc2ccc3c(c2)OCO3)c1[N+](=O)[O-]	9%
Oc1ccc(CN2CCc3ccccc3C2)c2cccnc12	-3%
CCOC(=O)N1CCc2c(sc(NC(C)=O)c2C(N)=O)C1	1%
COC(=O)c1ccc(NS(=O)(=O)/C=C/c2ccccc2)cc1	5%
COc1cccc2sc(Nc3nc4c(OC)cccc4s3)nc12	3%
CN1C(=O)c2cccc(NC(=O)c3coc4ccccc4c3=O)c2C1=O	-12%
CCCSc1nc2c([nH]c3ccccc32)c(=O)n1-c1ccc(C)cc1	5%
COc1ccc(C(=O)Oc2cccc(Nc3ncnc4ccccc34)c2)cc1	15µg/mL*
COc1cccc(OCC(=O)N2CCC3(CC2)CC(=O)c2ccccc2O3)c1	2%
COc1ccc(-n2c(=O)[nH]cc(C(=O)N3CCc4ccccc43)c2=O)cc1OC	-12%
NC(=O)c1c(NC(=O)CN2C(=O)c3ccccc3C2=O)sc2c1CCCCC2	-9%
Cc1ccnc(SCc2cc(=O)c(OC(=O)c3ccc4c(c3)OCO4)co2)n1	-10%
CCSC1=C(C#N)C(c2ccc(C)o2)C(C(=O)Nc2ccccc2OC)=C(C)N1 (configuration not stated)	-4%
COc1ccc(NC(=O)CSc2ccc(-c3ccc(-n4ccnc4)cc3)nn2)cc1	-21%
O=C(CCn1c(=O)[nH]c2ccsc2c1=O)N1CCN(Cc2ccc3c(c2)OCO3)CC1	-8%
CN(C)S(=O)(=O)c1ccc(C(=O)NCc2nnc(SCC(=O)NC3CCCC3)o2)cc1	-7%
CCc1ccc(NC(=O)CSc2nc3c([nH]c4ccccc43)c(=O)n2-c2ccc(F)cc2)cc1	75%

(continued)
SMILES	Mtb H37Rv
O=C(Nc1ccc(S(=O)(=O)Nc2ncccn2)cc1)c1nc2ccccc2s1	-5%
CC(c1ccco1)N(C(=O)c1cc([N+](=O)[O-])cc([N+](=O)[O-])c1)c1ccccn1 (configuration not stated)	0%
CCOC(=O)c1nn(-c2ccccc2)c(=O)c2c(NC(=O)Cc3ccc(Cl)cc3)scc12	2%
COc1ccccc1NC(=O)CSc1ccc2nnc(CCNC(=O)c3ccc(F)cc3)n2n1	-2%
COc1cccc(C(=O)Nc2c(C(=O)Nc3ccccc3)oc3ccccc23)c1	13%
NC(=O)c1ccc(NC(=O)C(=O)Nc2cccc(N3CCCS3(=O)=O)c2)cc1	4%
CS(=O)(=O)Nc1cccc(C2=NN(C(=O)c3cccs3)C(c3ccccc3O)C2)c1 (configuration not stated)	33%
CCN1C(=O)c2cccc3c(NC(=O)Nc4cccc(Cl)c4)ccc1c23	84%
C=CCn1c(N/N=C/c2ccc(F)cc2)nc2c1c(=O)n(C)c(=O)n2C	-4%
CCC(C)Sc1nc2c(c(=O)[nH]1)C(c1cccs1)C1=C(CC(C)(C)CC1=O)N2 (configuration not stated)	26%
O=C(CC1SC(N=Nc2c(O)[nH]c3ccccc23)=NC1=O)Nc1ccc(F)cc1 (configuration not stated)	82%
OCCN1CCN(C(c2cccs2)c2sc3ncnn3c2O)CC1 (configuration not stated)	3%
CCOC(=O)c1nn(-c2ccccc2)c(=O)c2c(NC(=O)COc3ccccc3)scc12	-5%
COc1ccc(-n2nc3c(c2NC(=O)c2ccc(Cl)cc2Cl)CS(=O)C3)cc1 (configuration not stated)	17%
O=C(CCCCCn1c(=O)[nH]c2ccsc2c1=O)NC1CCCCCC1	9%
CCCC(CCC)C(=O)NCCc1cc2ccc(C)c(C)c2[nH]c1=O	-3%
Cc1nnc(NC(=O)CSc2nc(N)c(NC(=O)c3cccs3)c(=O)[nH]2)s1	-7%
Cc1nnc(SCc2ccc(F)cc2)n(N)c1=O	18%
CC1=C(C(=O)Nc2ccc(Cl)cc2)C(c2ccc(F)cc2)NC(=O)N1 (configuration not stated)	6%
COC(=O)CSC(C)C(=O)Nc1nnc(-c2ccccc2Cl)s1 (configuration not stated)	-9%
CCn1cc(C(=O)Nc2ccc(NC(C)=O)cc2)c2nn(-c3ccccc3)c(=O)c-2c1	2%
COC(=O)c1c(NC(=O)/C(C#N)=C/c2ccc(C)o2)sc(C)c1C	28%
CCc1ccc(NC(=O)c2sc3nc4c(c(-c5ccc(C)o5)c3c2N)CCCC4)cc1	0%
CC1CC(C)CN(S(=O)(=O)c2ccc(C(=O)Nc3nc(-c4ccccc4)c(-c4ccccc4)s3)cc2)C1 (configuration not stated)	11%
O=C(Nc1nc(-c2ccc3ccccc3c2)cs1)c1ccc(Br)cc1	0%
Other entries
SMILES	Mtb H37Rv
CCOC(=O)CSc1nc2c(c(=O)n(C)c(=O)n2C)n1Cc1ccc(C)cc1	2%
Cc1cccc(Cn2cc3c(-c4ccccc4)nnc-3c3cc4c(cc32)OCO4)c1	5%
CC(C)c1ccc(NC(=O)Cn2ccn(-c3cccc(F)c3)c(=O)c2=O)cc1	6%
Cc1sc2ncnc(Nc3ccc(O)cc3)c2c1-c1ccccc1	9%
Cc1c(C(=O)Nc2nnc(-c3cccc([N+](=O)[O-])c3)s2)cccc1[N+](=O)[O-]	1%
Cc1ccc(Cl)cc1NS(=O)(=O)c1cc2c3c(c1)CCC(=O)N3CCC2	-2%
CC1CCCN(c2nc3c(c(=O)[nH]c(=O)n3C)n2CCCSc2nc3ccccc3s2)C1 (configuration not stated)	17µg/mL*
O=C1NC(=O)c2c(NC(=O)c3sc4ccccc4c3Cl)cccc21	-6%
CCOc1ccc(-n2c(SCc3ccc([N+](=O)[O-])cc3)nc3c(c2=O)SCC3)cc1	-1%
O=C(CSc1ccc2nnc(-c3ccccc3)n2n1)Nc1cccc(Cl)c1	9%
Cn1cc(C(=O)Nc2ccc3c(c2)OCO3)c2nn(-c3ccccc3)c(=O)c-2c1	-15%
O=C(O)c1cccc(N2C(=O)/C(=C\c3ccc(-c4ccccc4F)o3)SC2=S)c1	1%
COc1ccc(NC(=O)CSc2ccc3nnc(-c4ccc(F)cc4)n3n2)cc1	8%
O=C1C(=O)N(CCCN2CCOCC2)C(c2ccccc2)/C1=C(\O)c1ccncc1 (configuration not stated)	-9%
O=C(Nc1nnc(-c2cccnc2)o1)c1cc(Cl)cc(Cl)c1	97%
COc1ccc(C)c2sc(NNC(=O)c3nc4ccccc4s3)nc12	38µg/mL*

Bioassay records deposited in PubChem BioAssay by Southern Research Institute.
